nsP2pro inh: Primary qHTS for inhibitors of NSP2Pro chikungunya virus (CHIKV); Polyprotein P1234 (Chikungunya virus (strain S27-African prototype)), Q8JUX6; AID 1964107, 2024; FRET peptide cleavage, nsP2pro, fluorescence 1 h; Potency, µM (highest dose often 24.9 µM), without a hit: top-dose activity change, negative = inhibition, most hits filed as inhibitors; hit rate 1.1% among 31,000; active means well fitted inhibition curve with a large enough effect; inconclusive means small, poorly fitted or top-dose-only effect; inactive means no such curve, though single readings can be large or run the other way; note: nearly all actives have a fitted effect of over 60% in size; a reference inhibitor and vehicle were the controls
An asterisk follows results filed as active; i = inactive; u = inconclusive; [ ] = remark or other dose. % is set by controls: 0 for no effect and ±100 for the full control effect; potency is the fitted concentration of half-maximal effect. Not all compounds are listed; the hit share may differ from the screen's.

SMILES	nsP2pro inh
O=C(c1ccc([N+](=O)[O-])cc1)N(Cc1ccco1)c1ccccn1	-5%
CC(C)c1nn2c(=O)cc(COC(=O)C3CCCCC3)nc2s1	-22%
Cc1ccc(-n2ncc3c(N4CCN(c5ccccc5)CC4)ncnc32)cc1C	-12%
CC1=C(C(=O)OCC2CCCCC2)C(c2ccc(Cl)cc2Cl)CC(=O)N1 (stereo not drawn)	-19%
Cc1ccc(CNc2ccc(N3CCOCC3)cc2)cc1	-11%
CC(C(O)c1ccc(O)cc1)N1CCC(Cc2ccccc2)CC1 (stereo not drawn)	-3%[10 µM]
CC(=O)Nc1ccc(NC(=O)C2Cc3ccccc3N2C(=O)c2ccccc2)cc1 (stereo not drawn)	8%
CC(=O)Nc1ccccc1NC(=O)CN1CCN(Cc2ncccc2C)CC1	i
COc1ccccc1Nc1nc(-c2ccccc2Cl)c2cc(Br)ccc2n1	-12%
NC(=O)C1=CC2C3C=CC2C(OC3=O)O1 (stereo not drawn)	u
CCNC(=O)N1CC[C@H]2CC(=O)N([C@H](C(N)=O)C(C)C)CC[C@H]2C1	-4%[39.2 µM]
Cc1ccc(S(=O)(=O)Nc2ccccc2C(=O)Nc2nc(-c3ccc(Cl)cc3)cs2)cc1	-4%
CS/C=C/C(=O)O[C@@H]1CCC2=CC(=O)C(=C(C)C)C[C@]2(C)[C@H]1C	u
O=S(=O)(c1ccccc1F)N1CCC(CCc2nc(C3CCOCC3)no2)CC1	i
CCN1CCN(c2cc(C)c3cc(NC(=O)/C=C/c4ccc(OCCC(C)C)cc4)ccc3n2)CC1	12%
Cc1cnc(-c2ccccc2N(C)C)nc1NCc1ccc(-c2cccnc2)cc1	i
CC1(C)CC[C@]2(C(=O)O[C@@H]3O[C@H](CO[C@@H]4O[C@H](CO[C@@H]5O[C@H](CO)[C@H](O)[C@H](O)[C@H]5O)[C@@H](O)[C@H](O)[C@H]4O)[C@@H](O)[C@H](O[C@@H]4O[C@H](CO)[C@@H](O)[C@H](O)[C@H]4O)[C@H]3O)[C@H](O)C[C@]3(C)C(=CCC4[C@@]5(C)CC[C@H](O[C@@H]6OC[C@@H](O)[C@H](O)[C@H]6O)[C@@](C)(C(=O)O)C5CC[C@]43C)[C@@H]2C1 (stereo partly drawn)	87%[activator][5.1 µM]
CO[C@]1(NC(=O)CSC(F)F)C(=O)N2C(C(=O)O)=C(CSc3nnnn3CCO)CO[C@H]21	u
CCOCCCNC(=O)c1cc2c(=O)[nH]c(-c3ccccc3)cn2n1	i
CCN(CC)C(=O)[C@@H](C)C1CC[C@@]2(C)CC[C@H](NC(=O)c3ccncc3)[C@@H](C)[C@@H]2[C@H]1O (stereo partly drawn)	i
O=C1CCCC2=C1C(c1cccc(F)c1)N=C(Nc1nc3ccccc3o1)N2 (stereo not drawn)	-4%
CCOc1ccc(CNC(=O)C2CCN(Cc3cc4ccccc4n3Cc3ccccc3C)CC2)cc1	u
Cc1cccc(C(=O)N2CCc3cc(CNC(=O)c4ccc(Br)o4)ccc32)c1	-21%
CS(=O)(=O)c1ccc(C(=O)OC(C(=O)NC2C3CC4CC(C3)CC2C4)c2ccccc2)cc1[N+](=O)[O-] (stereo not drawn)	-1%
O=C(c1ccc2c(c1)N(Cc1cccc(Cl)c1)C(=O)c1ccccc1S2(=O)=O)N1CCc2ccccc21	-10%
O=C(NCCCN1CCCCC1)c1sc2ncccc2c1-n1cccc1	-9%
COc1ccc(-c2ccccc2NC(=O)C2CCCN2C(=O)c2cccnc2)cc1 (stereo not drawn)	i
CC(=O)N1CCCC1c1nc(C2CN(S(=O)(=O)c3cccc(C)c3)C2)no1 (stereo not drawn)	-2%
O=C(CN1C(=O)COc2ccc(S(=O)(=O)NC3CCCC3)cc21)Nc1ccc(Cl)cc1F	-11%
Cc1c(F)cccc1NC(=O)C1CCCN1S(=O)(=O)c1ccc(F)cc1 (stereo not drawn)	-13%
CN(C)[C@@H]1C(=O)C(C(N)=O)=C(O)[C@@]2(O)C(=O)C3=C(O)c4c(O)c(NC(=O)CN5CCCC5)cc(F)c4C[C@H]3C[C@@H]12	-18%
CC(=O)OC[C@H]1O[C@H](O[C@]2(CO)O[C@H](CO)[C@@H](OC(=O)/C=C/c3ccccc3)[C@@H]2O)[C@H](O)[C@@H](O)[C@@H]1O	124%[activator][10 µM]
Cc1ccccc1CS(=O)(=O)c1ncc(Cl)c(C(=O)Nc2nnc(C(C)C)s2)n1	u
CC1(C)CC[C@]2(C(=O)O[C@@H]3O[C@H](CO)[C@@H](O)[C@H](O)[C@H]3O)[C@H](O)C[C@]3(C)C(=CCC4[C@@]5(C)CC[C@H](O[C@@H]6OC[C@@H](O)[C@H](O)[C@H]6O)[C@@](C)(C(=O)O)C5CC[C@]43C)[C@@H]2C1 (stereo partly drawn)	-8%[10 µM]
O=C(C[C@@H]1O[C@H](CNC(=O)C2CC2)[C@@H](O)[C@H]1O)Nc1ccccc1	-4%[39.2 µM]
CCC1(c2ccc(N)cc2)CCC(=O)NC1=O (stereo not drawn)	4%
COc1cc(C2CC(=O)N(CC(=O)Nc3ccccc3F)c3ccccc3S2)cc(OC)c1OC (stereo not drawn)	5%
Cc1ccc(C2(O)CCN(C(=O)CCC3NC(=O)NC3=O)CC2)nc1 (stereo not drawn)	i
Cc1cc(C(C)(C)C)c(O)c(C)c1CC1=NCCN1	u
CC(C)C[C@H](NC(=O)CNC(=O)OCc1ccccc1)C(=O)N[C@@H](Cc1ccccc1)C(=O)CCl	-25%
CC[C@@H](c1ccc(F)c(F)c1)n1c(C(=O)OC)c(-c2ccno2)[nH]c1=S	-19%
O=[N+]([O-])c1ccc(/C=C/c2cccc(CO)n2)o1	-16%
CC(C)OCCCN1C(=O)c2[nH]nc(-c3ccccc3O)c2C1c1ccc(OCc2ccccc2)cc1 (stereo not drawn)	-2%
Cn1nnnc1Sc1ncnc2scc(-c3ccc[nH]3)c12	u
O=C(NCc1ccccc1Cl)c1ccc(CS(=O)(=O)c2ccc(Br)cc2)o1	-11%
O=C1NC(=NC2CCCC2)C2(CCCN([S+](=O)([O-])c3ccccc3)C2)N1c1cccnc1 (stereo not drawn)	-5%
CN1CCN(C2=Nc3ccccc3Sc3ccc(Cl)cc32)CC1	12%
CC(=O)Nc1sc2c(c1-c1ccc3c(c1)CCO3)CCNC2	-9%
C=C/C=C/[C@@H]1OC[C@H](/C=C/C=C/C)[C@H]1O	-15%[39.2 µM]
CC(CN)(c1ccccn1)N1CCOCC1 (stereo not drawn)	i
C=C1CC2OC(=O)C(=C)C2C(O)/C=C(\C)CCC1O (stereo not drawn)	5%
Cc1c(C(=O)OC[C@H]2CCCO2)[nH]c2c1C(=O)CC(c1ccco1)C2 (stereo partly drawn)	-3%
COc1ccccc1-c1ccc(C(=O)N2CCC(NC(=O)Nc3ccc(Cl)cc3)CC2)cc1	i
CCN(CC)CCNc1ccc(CO)c2sc3ccccc3c(=O)c12	u
Cc1nc(N2CCOCC2)c2nc(-c3ccccc3)n(CCCN3CCOCC3)c2n1	4%
CC1=C(c2ccc(Cl)cc2)S(=O)(=O)N=C1N1CCN(c2cccc(C)c2C)CC1	-30%
CC(=O)O[C@H]1C[C@@]2(C)[C@@H](C[C@@H](O)[C@H]3[C@@]4(C)CC[C@@H](O)[C@@H](C)[C@@H]4CC[C@@]32C)/C1=C(\CCC=C(C)C)C(=O)O	4%
Cc1nnsc1C(=O)Oc1ccc(C(C)C)cc1	-15%
CCOC(=O)CSc1nc2c(sc3ccccc32)c(=O)n1Cc1ccc(C)cc1	-14%
CN(C)[C@@H]1CN(C(=O)c2ccc(C#N)cc2)C[C@H]1CO	-1%

(continued)
SMILES	nsP2pro inh
CCOc1ccccc1NC(=O)CN1C=NS(=O)(=O)c2ccccc21	-14%
Cc1ccc(NC(=O)Cn2cc3c(n2)CCCCC3)cc1	2%
c1cc2c3c(cccc3c1)NC(c1ccc3c(c1)OCO3)N2	-5%
CCCc1cc(=O)[nH]c(SCc2nc(-c3ccc(C)cc3)no2)n1	-11%
NC[C@@H](O)c1ccc(O)c(O)c1	u
NC(N)=N/N=C/c1c(Cl)cccc1Cl	-8%
CC(C)[C@H](N)C(=O)O	-7%
CCc1c(C)nc2nncn2c1Nc1ccc(C(C)C)cc1	-2%
COc1ccc(Cc2nc3c4cnn(-c5ccccc5Br)c4ncn3n2)cc1	-27%
Cc1ccc(C(=O)N2CCC(c3c[nH]c4ccccc34)(c3c[nH]c4ccccc34)CC2)cc1	4%
COc1cccc(NC(=O)c2oc3ccc(S(=O)(=O)N(C)C4CCCCC4)cc3c2C)c1	-14%
COc1cc(O)cc(O[C@@H]2O[C@H](CO)[C@@H](O[C@@H]3OC[C@](O)(CO)[C@H]3O)[C@H](O)[C@H]2O)c1OC	17%[10 µM]
Cc1ccc(C)c(S(=O)(=O)c2nnn3c2nc(N2CCOCC2)c2sccc23)c1	-16%
Cc1ccc(-c2cnc(NCc3c(F)cccc3Cl)n2C)cc1	10%
Cc1cccc(NC(=O)CCCCCn2c(=O)[nH]c3ccsc3c2=O)c1	-19%
Oc1cccc2cc(-c3ccccc3)cnc12	i
C=Cc1c(C)c2cc3nc(cc4[nH]c(cc5nc(cc1[nH]2)C(C)=C5CCC(=O)O)c(CCC(=O)OC)c4C)[C@@]1(C)C3=CC=C(C(=O)OC)[C@H]1C(=O)OC	u
Cc1cn2c(=O)cc(COc3ccccc3NC(=O)c3ccc(Cl)cc3)nc2s1	-11%
O=Nc1c2[nH]c3ccccc3nc-2c2ccccc12	68%[activator]
CCCCCCCCCC(=O)NO	5%
O=C1NCCCCCN(Cc2cn[nH]c2-c2ccc(F)cc2)[C@H]2CCC[C@@H]12	i
CC1[C@@H](O)[C@@H](O)C2[C@]3(C)C(C[C@H]4OC(=O)[C@H](O)[C@]1(O)[C@@]24C)C(C)(O)C[C@H](O)[C@H]3O (stereo partly drawn)	-18%[10 µM]
C=C[C@H]1[C@H](O[C@@H]2O[C@H](CO)[C@@H](O)[C@H](O)[C@H]2O)OC=C2C(=O)OCC[C@]21O	55%[activator]
O=C(c1ccccc1)N1CCCC2(CC(c3ccccn3)=NO2)C1 (stereo not drawn)	-11%
CCN(CC)C(=O)c1cc(S(=O)(=O)Cc2ccccc2)c(N2CCC(c3ccccc3)CC2)cc1N(CC)CCN(C)C	i
Cc1nn(-c2ccccc2)c2c1N(CC(=O)N1CCN(c3ccccc3F)CC1)C(=O)CS2	-16%
CN(C(=O)C(Cl)Cl)c1ccc(OC(=O)c2ccco2)cc1	-3%
COP(=S)(OC)Oc1ccc(S(N)(=O)=O)cc1	-5%
CCOc1ccc(C(=O)c2cn(Cc3ccc(Cl)cc3)c3cc(OC)c(OC)cc3c2=O)cc1	-9%
O=C1NC(=O)C(c2ccccc2)(c2ccccc2)N1	u
O=C(c1cc(F)ccc1F)N1CCCC(Cc2noc(-c3ccccc3)n2)C1 (stereo not drawn)	-1%
CC(C)OC(=O)CCC/C=C\C[C@@H]1[C@@H](CC[C@@H](O)CCc2ccccc2)[C@H](O)C[C@@H]1O	-1%[5.1 µM]
COc1ccccc1CNS(=O)(=O)c1cc2c3c(c1)CCN3C(=O)CC2	-11%
COCCN1Cc2ccc(NCc3ccccc3)nc2C(C)(C(=O)NCc2ccccc2)C1 (stereo not drawn)	-9%
OC1(CN2CCCCC2)CCN(Cc2cnn(-c3ccccc3Cl)c2)C1 (stereo not drawn)	i
Cc1ccc(-c2ccccc2CN2CCN([S+](=O)([O-])c3cccc(C(F)(F)F)c3)CC2)cc1Cl	i
Cc1ncc(-c2nc3cc(S(=O)(=O)NC(C)C)ccc3n2C(C)C)cn1	3%
COc1ccc(N(C)C(=O)Cn2cc(S(=O)(=O)N3CCN(c4ccccc4F)CC3)c3ccccc3c2=O)c(OC)c1	-21%
NC(=O)c1ccc(Cc2c(-c3cccc(-c4ccccc4)c3)[nH]n(-c3nc(C(=O)O)cs3)c2=O)cc1	i
COC(=O)c1c(-c2ccccc2)no[n+]1[O-]	u

Structures shown so far containing an NH in an aromatic ring:
SMILES	nsP2pro inh
CCOCCCNC(=O)c1cc2c(=O)[nH]c(-c3ccccc3)cn2n1	i
CC[C@@H](c1ccc(F)c(F)c1)n1c(C(=O)OC)c(-c2ccno2)[nH]c1=S	-19%
CC(C)OCCCN1C(=O)c2[nH]nc(-c3ccccc3O)c2C1c1ccc(OCc2ccccc2)cc1 (stereo not drawn)	-2%
Cn1nnnc1Sc1ncnc2scc(-c3ccc[nH]3)c12	u
Cc1c(C(=O)OC[C@H]2CCCO2)[nH]c2c1C(=O)CC(c1ccco1)C2 (stereo partly drawn)	-3%
CCCc1cc(=O)[nH]c(SCc2nc(-c3ccc(C)cc3)no2)n1	-11%
Cc1ccc(C(=O)N2CCC(c3c[nH]c4ccccc34)(c3c[nH]c4ccccc34)CC2)cc1	4%
Cc1cccc(NC(=O)CCCCCn2c(=O)[nH]c3ccsc3c2=O)c1	-19%
C=Cc1c(C)c2cc3nc(cc4[nH]c(cc5nc(cc1[nH]2)C(C)=C5CCC(=O)O)c(CCC(=O)OC)c4C)[C@@]1(C)C3=CC=C(C(=O)OC)[C@H]1C(=O)OC	u
O=Nc1c2[nH]c3ccccc3nc-2c2ccccc12	68%[activator]
O=C1NCCCCCN(Cc2cn[nH]c2-c2ccc(F)cc2)[C@H]2CCC[C@@H]12	i
NC(=O)c1ccc(Cc2c(-c3cccc(-c4ccccc4)c3)[nH]n(-c3nc(C(=O)O)cs3)c2=O)cc1	i
